Screening results from PubChem.
rRNA inh HTS – selective bacterial rRNA inhibition in E. coli | E. coli WT GFP vs humanized-ribosome RFP mutants, fluorescence, 24 h; active compounds read low; DMSO median 0, no signal -100 | GFP signal change (wild-type ribosome), % (no concentration beside the values) | actives 1.6% (n = 350,000) | AID 720706;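 active = significant combined selectivity score with lowered wild-type GFP, culture density cut under 30%, mutant RFP and density less affected; inactive = any of these conditions unmet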; also: one replicate is shown; some compounds called inactive have numbers as strong as hits
MLL AF4-AF9 inh – MLL-AF4/AF9 protein interaction inhibition | actives 0.47% (n = 350,000) | inhibition, % at 10 µM | AlphaScreen, biotin-AF4 peptide binding to FLAG-AF9 | P42568;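 active = every replicate reaching a set inhibition limit, whatever the replicate mean, cut at about 25% in these data; inconclusive = mean inhibition reaches that limit but some replicates miss it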;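 also: 0% = plate neutral control median and 100% = total signal loss; the record names both 10 and 1 µM as test concentration; the first replicate is given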
Target sequence (P42568 whole entry, looked up): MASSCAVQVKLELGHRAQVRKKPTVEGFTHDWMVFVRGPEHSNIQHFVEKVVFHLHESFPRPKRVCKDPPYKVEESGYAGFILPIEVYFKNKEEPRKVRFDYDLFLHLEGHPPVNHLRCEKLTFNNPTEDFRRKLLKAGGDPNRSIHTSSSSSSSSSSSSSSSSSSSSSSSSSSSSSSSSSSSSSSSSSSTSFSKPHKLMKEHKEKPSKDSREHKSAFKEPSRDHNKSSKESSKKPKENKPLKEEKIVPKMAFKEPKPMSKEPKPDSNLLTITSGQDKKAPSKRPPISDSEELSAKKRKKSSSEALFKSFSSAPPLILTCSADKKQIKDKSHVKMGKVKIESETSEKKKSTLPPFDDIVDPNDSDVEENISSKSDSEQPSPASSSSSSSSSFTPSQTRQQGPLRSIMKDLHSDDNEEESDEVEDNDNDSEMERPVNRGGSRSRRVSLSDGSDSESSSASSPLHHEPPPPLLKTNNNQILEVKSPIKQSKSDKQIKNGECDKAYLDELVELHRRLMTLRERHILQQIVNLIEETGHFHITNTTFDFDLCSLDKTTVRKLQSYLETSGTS
rRNA inh HTS OD600 – second read-out of rRNA inh HTS, no call of its own (marks repeat the call); OD600 change, %; measured here: OD600 growth;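 optical density of the mix in the first replicate; 0 = DMSO median and -100 = no signal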
rRNA inh HTS RFP – further read-out of rRNA inh HTS, marked with its call; RFP signal change, %; measured here: RFP humanized mutant strains;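 first replicate; 0 = DMSO median and -100 = no signal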
The depositor's hits bear a star; ? = inconclusive. The list is partial. The share of hits here may be higher or lower than overall.

SMILES	rRNA inh HTS	rRNA inh HTS OD600	rRNA inh HTS RFP	MLL AF4-AF9 inh
CC(=O)Nc1cccc(-c2csc(C(O)c3ccc(F)c(F)c3)n2)c1 (configuration not stated)	-1.9	-1.3	11.8	?
O=C(C[C@@H]1C=C[C@@H](NC(=O)c2ccncc2)[C@H](CO)O1)NCc1ccncn1	-1.8	-10.0	-2.2	1.2
COc1ccc(CN(C)C[C@H]2OCCCC[C@H](C)Oc3ccc(NS(=O)(=O)c4ccc(Cl)cc4)cc3C(=O)N([C@H](C)CO)C[C@H]2C)cc1	-27.5	-49.6	39.5	-0.9
COc1ccc(-c2ccccc2[C@H]2[C@@H](CO)N(C(=O)C3CCOCC3)[C@H]2C#N)cc1	1.2	0.6	-4.2	1.3
C[C@@H]1CN([C@@H](C)CO)C(=O)c2cccc(NC(=O)Nc3ccccc3)c2O[C@H]1CN(C)Cc1ccc(Oc2ccccc2)cc1	-0.7	0.8	4.7	-0.6
C[C@@H]1CN([C@H](C)CO)C(=O)c2cccc(NC(=O)c3ccc(-c4nccs4)cc3)c2O[C@H]1CN(C)S(=O)(=O)c1cn(C)cn1	-6.9	1.9	0.8	-1.8
COc1cccc(C(=O)N2C[C@H]3[C@@H](c4ccccc42)[C@H](CO)N3C(=O)c2ccccc2)c1	0.5	6.0	-1.9	-1.5
CC(C)(C)OC(=O)C1=CC[C@@H](c2ccc(Cl)c(Cl)c2)N(S(=O)(=O)c2ccc(F)cc2)[C@H]1c1cccc(F)c1	14.8	31.4	-1.4	-1.4
O=C(c1cccc(F)c1)N1C[C@@H]2[C@H](c3ccccc31)[C@@H](CO)N2C(=O)C1CCCCC1	0.7	2.1	-0.4	0.2
COc1ccc(NC(=O)N2C[C@H]3[C@@H](c4ccccc42)[C@@H](CO)N3C(=O)C2CC2)cc1	0.2	-2.7	-1.7	1.2
O=C(Nc1nnc([C@@H]2C[C@H](O)[C@@H](CO)O2)s1)Nc1ccccc1F	1.2	10.6	-2.4	0.1
Cc1noc(C)c1NC(=O)Nc1ccc2c(c1)C(=O)N([C@H](C)CO)C[C@H](C)[C@@H](CN(C)Cc1ccncc1)OCCCC[C@@H](C)O2	5.1	4.1	-0.3	-3.9
Cc1nc(SCC(=O)N2CCCCCC2)c2c(=O)n(C)c(=O)n(CC(C)C)c2n1	-16.5	-10.1	-0.1	-8.3
COc1ccccc1Cc1c(-c2ccccc2)nc2ccc(Br)cn12	-2.6	-12.8	-1.5	6.5
C[C@H]1CN([C@@H](C)CO)C(=O)c2cccc(NC(=O)Nc3ccccc3)c2O[C@H]1CN(C)C	-5.9	-5.7	-1.0	-2.1
COCCNC(=O)C[C@H]1C=C[C@H](NC(=O)NC2CCCC2)[C@@H](CO)O1	1.6	5.4	1.0	0.3
N#C[C@@H]1[C@H](c2ccc(C#Cc3cccc(F)c3)cc2)[C@@H](CO)N1C(=O)C1CCC1	-55.4	-77.8	-12.1	-5.8
CN(C)CC#Cc1ccc([C@@H]2[C@H](CO)N3CCCCN(C(=O)C4CCC4)C[C@@H]23)cc1	4.4	14.2	-0.7	-2.4
O=C(Nc1c(-c2ccc3c(c2)OCO3)[nH][nH]c1=O)c1ccc2c(c1)OCO2	-3.2	4.8	-0.5	-1.3
CCN1C[C@@H]2[C@@H]3C(=O)N(Cc4ccccc4)C(=O)[C@@H]3[C@](Cc3ccccc3)(C1=O)N2C(=O)c1ccc(C(C)(C)C)cc1	3.7	7.3	-5.7	3.1
C[C@@H]1CN([C@H](C)CO)C(=O)c2cc(-c3cncnc3)cnc2O[C@H]1CN(C)C(=O)c1cccc(F)c1	0.2	6.9	-3.0	-4.1
C[C@H]1CCCCO[C@H](CN(C)C(=O)c2ccccc2)[C@@H](C)CN([C@@H](C)CO)C(=O)c2cc(NC(=O)NC3CCCCC3)ccc2O1	-3.0	-8.2	1.0	0.2
O=C(c1cnccn1)N1CC(=O)N2[C@H](C1)[C@@H](c1ccc(-c3ccc(F)cc3)cc1)[C@@H]2CO	-3.1	-5.7	-0.3	0.0
Cc1noc(C)c1NC(=O)Nc1ccc2c(c1)C(=O)N([C@@H](C)CO)C[C@@H](C)[C@@H](CN(C)S(=O)(=O)c1ccc(Cl)cc1)OCCCC[C@@H](C)O2	-6.8	-8.4	2.9	2.4
CCOc1ccc(C(=O)NCC(=O)NCCSc2ccc(Br)cc2)cc1OCC	5.0	8.2	3.7	-0.9

Part of the list above in order of formula weight, largest number first:
SMILES	rRNA inh HTS	rRNA inh HTS OD600	rRNA inh HTS RFP	MLL AF4-AF9 inh
Cc1noc(C)c1NC(=O)Nc1ccc2c(c1)C(=O)N([C@H](C)CO)C[C@H](C)[C@@H](CN(C)Cc1ccncc1)OCCCC[C@@H](C)O2	5.1	4.1	-0.3	-3.9
C[C@@H]1CN([C@@H](C)CO)C(=O)c2cccc(NC(=O)Nc3ccccc3)c2O[C@H]1CN(C)Cc1ccc(Oc2ccccc2)cc1	-0.7	0.8	4.7	-0.6
O=C(c1cnccn1)N1CC(=O)N2[C@H](C1)[C@@H](c1ccc(-c3ccc(F)cc3)cc1)[C@@H]2CO	-3.1	-5.7	-0.3	0.0
COCCNC(=O)C[C@H]1C=C[C@H](NC(=O)NC2CCCC2)[C@@H](CO)O1	1.6	5.4	1.0	0.3
O=C(Nc1nnc([C@@H]2C[C@H](O)[C@@H](CO)O2)s1)Nc1ccccc1F	1.2	10.6	-2.4	0.1

Other records:
SMILES	rRNA inh HTS	rRNA inh HTS OD600	rRNA inh HTS RFP	MLL AF4-AF9 inh
C[C@H]1CN([C@@H](C)CO)C(=O)c2c(c3ccccc3n2C)-c2ccccc2CO[C@H]1CN(C)C(=O)CCN(C)C	0.1	8.8	-0.7	5.6
C[C@@H]1CN([C@H](C)CO)C(=O)c2cc(-c3cccnc3)cnc2O[C@@H]1CN(C)C(=O)c1cccc(F)c1	2.3	4.4	-2.0	-3.3
C[C@H](CO)N1C[C@H](C)[C@@H](CN(C)C)Oc2ncc(C#Cc3cccnc3)cc2C1=O	5.4	11.4	2.1	-8.8
COc1cccc(C#Cc2ccc([C@H]3[C@@H](CO)N(C(=O)C4CCOCC4)[C@H]3C#N)cc2)c1	0.7	-20.7	0.1	2.4
COc1ccc(C#Cc2ccc([C@@H]3[C@@H](CO)N4C(=O)CN(C(=O)NC(C)C)C[C@@H]34)cc2)cc1	-1.0	17.9	-4.5	-4.6
CC(C)NC(=O)Nc1cccc2c1O[C@H](CN(C)C(=O)Nc1ccc(C(F)(F)F)cc1)[C@@H](C)CN([C@@H](C)CO)C2=O	-13.3	-14.0	-1.0	-4.7
C/C=C/c1cnc2c(c1)C(=O)N([C@@H](C)CO)C[C@@H](C)[C@@H](CN(C)Cc1ccccc1)O2	7.7	14.0	0.1	-4.7
C[C@@H]1CCCCO[C@@H](CN(C)Cc2ccccc2)[C@H](C)CN([C@H](C)CO)C(=O)c2cc(NS(C)(=O)=O)ccc2O1	1.7	7.3	-3.7	-17.2
C[C@@H]1CN([C@H](C)CO)C(=O)c2cccc(NC(=O)c3nc4ccccc4s3)c2O[C@H]1CN(C)S(=O)(=O)c1ccc(Cl)cc1	-2.4	5.1	-4.7	-3.9
C[C@@H]1CN([C@H](C)CO)S(=O)(=O)c2ccc(C#C[C@@H](C)O)cc2O[C@@H]1CN(C)C(=O)c1ccccc1	3.1	1.0	-2.2	4.2
C[C@H](CO)N1C[C@H](C)[C@H](CN(C)S(=O)(=O)c2cccs2)OCc2cn(nn2)CCCC1=O	-1.0	-2.2	0.0	-0.8
C[C@H](CO)N1C[C@H](C)[C@@H](CN(C)C(=O)C2CC2)Oc2cc(Br)ccc2S1(=O)=O	5.7	17.4	-3.6	-1.4
CC(C)NC(=O)N(C)C[C@@H]1Oc2ccc(NS(=O)(=O)c3ccc(F)cc3)cc2CC(=O)N([C@H](C)CO)C[C@H]1C	-1.6	4.1	0.0	0.3
COc1ccc(C(=O)N2C[C@@H]3[C@H](c4ccccc42)[C@H](CO)N3Cc2ccccc2)cc1	-3.3	-7.5	-0.9	-1.0
C[C@@H]1CN([C@@H](C)CO)C(=O)c2cc(NS(=O)(=O)c3cccs3)ccc2O[C@@H](C)CCCCO[C@@H]1CN(C)C(=O)CCCN(C)C	-1.1	-3.4	-1.8	-0.7
CC(C)C#Cc1cnc2c(c1)C(=O)N([C@@H](C)CO)C[C@H](C)[C@@H](CN(C)C(=O)c1ccccc1F)O2	-0.4	-2.6	-0.4	-0.9
Cc1noc(C)c1NC(=O)N(C)C[C@H]1Oc2ccc(NC(=O)CCN3CCOCC3)cc2CC(=O)N([C@H](C)CO)C[C@H]1C	1.3	5.5	-0.9	-10.4
C[C@H]1CN([C@@H](C)CO)C(=O)c2cccc(NS(=O)(=O)c3ccc(Cl)cc3)c2O[C@H]1CN(C)C(=O)Nc1ccccc1	-7.6	-2.1	-0.3	-7.6
C[C@H](CO)N1C[C@H](C)[C@H](CN(C)C(=O)NC2CCCCC2)Oc2ccc(NC(=O)Cc3cn(C)c4ccccc34)cc2CC1=O	-0.2	-7.0	1.7	0.6
O=C(N[C@@H]1CC[C@@H](CCNS(=O)(=O)c2ccccc2)O[C@@H]1CO)c1cccnc1	3.2	-3.0	-3.8	-0.4
CCCC(=O)Nc1ccc2c(c1)C(=O)N(C)[C@@H]1CC[C@H](CC(=O)NCc3ccccc3Cl)O[C@@H]1CO2	-6.0	-10.9	1.0	0.7
COc1cccc(CN2CC3(CN(CC4CC4)C3)c3c([nH]c4cc(OC)ccc34)[C@H]2CO)c1	-5.1	5.6	3.9	2.6
CCCC#Cc1ccc2c(c1)[C@@H]1[C@@H](CCN1S(=O)(=O)c1ccccc1C)[C@@H](CO)N2	-4.9	-9.4	3.5	0.4
C[C@@H]1CN([C@H](C)CO)S(=O)(=O)c2ccc(C#CC3CC3)cc2O[C@@H]1CN(C)C(=O)C1CCC1	-1.8	2.4	3.2	-0.8
CO[C@H]1CN(C)C(=O)c2ccc(NS(=O)(=O)c3ccc(C)cc3)cc2OC[C@H](C)N(C)C[C@@H]1C	0.5	4.6	-0.7	-4.4
Next section
SMILES	rRNA inh HTS	rRNA inh HTS OD600	rRNA inh HTS RFP	MLL AF4-AF9 inh
C[C@@H]1CN([C@@H](C)CO)C(=O)c2cc(-c3ccccc3)cnc2O[C@H]1CN(C)C(=O)Cc1ccccn1	2.4	6.0	0.1	2.2
CN1C(=O)c2cc(NC(=O)C3CC3)ccc2OC[C@@H]2O[C@H](CC(=O)NCCc3ccncc3)CC[C@H]21	1.6	7.8	0.0	-9.8
COc1cccc(CNC(=O)C2(C)CCCCN2C)c1 (configuration not stated)	11.7	13.2	20.7	-3.4
O=C(C1CCC1)N1CC[C@H]2[C@H](CO)Nc3ccc(Br)cc3[C@H]21	1.4	-2.2	1.9	1.6
COC(=O)[C@H](Cc1ccccc1)N1Cc2ccccc2Oc2cc(Br)ccc2S1(=O)=O	4.5	6.0	-0.5	-0.7
COc1ccc(NC(=O)N(C)C[C@@H]2Oc3ccc(NC(=O)C4CCCCC4)cc3CC(=O)N([C@H](C)CO)C[C@H]2C)cc1	0.8	2.0	-2.8	-1.5
COc1ccc(S(=O)(=O)N(C)C[C@@H]2Oc3ccc(NS(=O)(=O)c4c(C)noc4C)cc3C(=O)N([C@@H](C)CO)C[C@@H]2C)cc1	-3.0	-1.5	-1.6	0.2
Cc1cccc(C(=O)N2CCC(=O)N([C@H](COCc3cccc(Cl)c3)Cc3ccccc3)CC2)c1	-22.3	-37.7	-4.7	-0.6
C[C@H]1CN([C@@H](C)CO)C(=O)c2cc(NS(=O)(=O)c3ccc(Cl)cc3)ccc2O[C@@H]1CN(C)C(=O)Nc1cccc2ccccc12	2.2	-2.2	7.3	1.1
COc1ccc(S(=O)(=O)Nc2ccc3c(c2)CC(=O)N([C@H](C)CO)C[C@@H](C)[C@@H](CN(C)Cc2ccccc2)O3)cc1	-2.1	-10.8	3.3	3.2
C[C@H](CO)N1C[C@H](C)[C@@H](CN(C)Cc2ccccn2)Oc2ncc(C#CC3CC3)cc2C1=O	3.2	1.0	3.7	1.5
C[C@H](CO)N1C[C@H](C)[C@H](CN(C)C(=O)c2ccccc2)OCCCC[C@H](C)Oc2ccc(NS(=O)(=O)c3cccs3)cc2C1=O	-1.4	-3.9	0.8	0.1
CCCN(C)C[C@@H]1OCCCC[C@@H](C)Oc2ccc(NS(=O)(=O)c3ccc(F)cc3)cc2C(=O)N([C@@H](C)CO)C[C@@H]1C	5.5	-0.6	-0.8	-1.3
C[C@@H]1CN([C@@H](C)CO)S(=O)(=O)c2ccc(-c3cccc(C#N)c3)cc2O[C@@H]1CN(C)CC1CC1	0.1	3.0	-1.0	1.7
CCCC(=O)N1CCC2(CC1)CN(C(=O)CC)[C@@H](CO)c1c2c2ccc(OC)cc2n1C	-2.8	-7.9	0.5	-1.4
CO[C@H]1CN(C)C(=O)c2ccc(NC(=O)NC(C)C)cc2OC[C@H](C)N(CCC(F)(F)F)C[C@H]1C	-1.1	-4.6	-1.0	-0.4
O=C(Nc1ccccc1Cl)c1cc(C2CCCN(C(=O)c3ccccc3)C2)on1 (configuration not stated)	7.5	-46.9	9.9	1.8
O=C(NC1CCCCC1)N1CC(=O)N2[C@H](CO)[C@H](c3ccc(/C=C/c4ccccc4)cc3)[C@H]2C1	-12.0	-49.8	27.5	1.6
COc1ccc(OC)c(NC(=O)C2(C)CCN2C(=O)C(C)(C)c2ccccc2)c1 (configuration not stated)	-1.7	-13.3	1.4	4.1
COc1ccc(S(=O)(=O)N(C)C[C@@H]2Oc3ccc(N(C)C)cc3CC(=O)N([C@@H](C)CO)C[C@H]2C)cc1	-0.5	-7.3	0.6	5.9
C[C@H]1CN([C@@H](C)CO)C(=O)c2c(c3ccccc3n2C)-c2ccccc2CO[C@@H]1CN(C)C(=O)Nc1ccccc1	-1.7	-7.7	15.4	-3.2
